From PubChem BioAssay
PLK1 PBD inh: blocks phosphopeptide binding to human Plk1 polo box domain | P53350 | Plk1 PBD phosphopeptide binding, fluorescence polarization | inhibition, %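 (tested at about 20 µM)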 | 97,000 tested, 0.13% active | AID 693; in the data active = inhibition above about 34%, passing the limit was not always enough
EphB4 antag: EphB4-ephrin-B2 interaction antagonism; P54760; EphB4 LBD / TNYL-RAW-Alexa532 peptide, fluorescence polarization; inhibition, % at 7 µM; 97,000 tested, 0.15% active;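 active = inhibition above the screen-wide mean inhibition plus 3 SD, cut at about 15% in these data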;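 also: 0% = DMSO wells and 100% = excess unlabeled TNYL-RAW peptide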
PLAP activator: activators of human placental alkaline phosphatase; P05187; purified PLAP enzyme, luminescent substrate read-out; hits give high values; activation fold at 20 µM; 96,000 tested, 1.2% active; in the data active = activation fold above about 2
Target sequence (P05187 whole entry, looked up): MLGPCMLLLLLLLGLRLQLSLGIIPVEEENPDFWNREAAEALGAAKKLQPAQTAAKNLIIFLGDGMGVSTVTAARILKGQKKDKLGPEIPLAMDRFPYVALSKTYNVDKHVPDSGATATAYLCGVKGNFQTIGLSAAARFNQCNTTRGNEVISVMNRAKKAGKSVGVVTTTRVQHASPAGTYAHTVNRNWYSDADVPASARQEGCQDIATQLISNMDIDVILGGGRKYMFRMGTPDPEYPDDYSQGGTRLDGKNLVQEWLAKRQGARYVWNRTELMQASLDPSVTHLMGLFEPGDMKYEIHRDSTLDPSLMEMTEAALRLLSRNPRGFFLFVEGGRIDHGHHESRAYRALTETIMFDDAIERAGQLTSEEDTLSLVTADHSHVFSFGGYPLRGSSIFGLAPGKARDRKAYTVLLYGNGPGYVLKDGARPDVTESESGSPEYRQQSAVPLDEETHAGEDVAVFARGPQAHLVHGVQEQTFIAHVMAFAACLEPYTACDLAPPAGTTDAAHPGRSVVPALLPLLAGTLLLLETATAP
PLK1 inh: blocks human PLK1 kinase activity; inhibition, % at 10 µM; recombinant PLK1 kinase, TR-FRET peptide phosphorylation; P53350; 97,000 tested, 0.53% active;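 active = inhibition of 50% or more in the single-concentration screen; inactive = inhibition below 50%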;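 also: 0% = DMSO max control and 100% = H-89 dihydrochloride min control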
S1P2 blocker: antagonists of human S1P2 receptor; cell-based S1P2 antagonist assay, inhibition at 5 uM; inhibition, % at 5 µM; 97,000 tested, 0.21% active; O95136; in the data active = inhibition above about 45%;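 also: CRE beta-lactamase reporter cells expressing human S1P2 stimulated with S1P; 0% = agonist at EC80 alone and 100% = agonist plus reference antagonist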
Target sequence (O95136 whole entry, looked up): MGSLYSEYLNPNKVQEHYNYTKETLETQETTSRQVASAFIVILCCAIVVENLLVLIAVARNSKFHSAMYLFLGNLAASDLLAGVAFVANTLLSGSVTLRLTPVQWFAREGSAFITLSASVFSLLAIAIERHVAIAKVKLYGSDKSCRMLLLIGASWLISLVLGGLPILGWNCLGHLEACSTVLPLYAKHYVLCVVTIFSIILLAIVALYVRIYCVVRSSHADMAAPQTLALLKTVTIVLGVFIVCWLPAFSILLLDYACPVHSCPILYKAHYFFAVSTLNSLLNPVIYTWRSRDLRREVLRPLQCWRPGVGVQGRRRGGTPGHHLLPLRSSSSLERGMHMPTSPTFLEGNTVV
HIV Rev-RRE inh: inhibitors of HIV-1 Rev-RRE RNA interaction; P05866; Rev peptide-RRE RNA binding, FRET; inhibition, % at 8 µM; 97,000 tested, 0.79% active;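 active = inhibition above the screen-wide mean plus 3 SD, cut at about 35% in these data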;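 also: 0% = median DMSO wells and 100% = median Neomycin B control wells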
Target sequence (P05866 whole entry, looked up): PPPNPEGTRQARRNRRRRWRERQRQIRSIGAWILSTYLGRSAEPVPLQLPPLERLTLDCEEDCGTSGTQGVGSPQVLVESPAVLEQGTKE
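assay system = Cy5-tagged RRE RNA duplex with fluorescein-tagged Rev peptide | incubation = 5 + 15 min at 25 °C | also added = labelled Rev peptide | measure = % inhibition of FRET ratio versus controls | benchmarks = DMSO wells as 0% and neomycin B wells as 100% inhibition | measured by = FRET fluorescence readout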
MT1-MMP txn act: MT1-MMP promoter transcription activation; 86,000 tested, 0.16% active; AID 750; HT1080 MT1-MMP promoter luciferase reporter, luminescence, overnight; hits give high values; activation factor at 10 µM;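 active = activation factor of at least 2 for MT1-MMP transcription at 10 µM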
S1P2 agonist: S1P2 (human) receptor agonism | 97,000 tested, 0.46% active | activation, % at 4.5 µM | O95136 | S1P2-expressing cell line, agonist reporter read-out; in the data active = activation above about 16%;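 also: 0% = vehicle low control and 100% = maximal reference agonist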
Active calls of the source: *; / = no result given. These rows are one share of the data (hit frequency here may not be typical).

PLK1 PBD inh	EphB4 antag	PLAP activator	PLK1 inh	S1P2 blocker	HIV Rev-RRE inh	MT1-MMP txn act	S1P2 agonist	canonical_smiles
-7.1	5.1	1.3	-0.1	-9.1	4.2	1.1	-3.4	Cc1ccc(-c2noc(CSc3nnc(-c4ccncc4)n3-c3ccc(C)cc3)n2)cc1
-11.9	8.2	1	-1.4	-3.6	15.0	1.1	-3.8	CCCCCn1c(=O)c(C(=O)c2ccccc2)nc2ccccc21
6.5	-13.9	1.6	-9.2	-20.7	5.6	1	-1.1	CNC(=O)CSc1nnc(-c2ccc(S(=O)(=O)N3CCCC3)cc2)n1-c1cccc(C)c1C
-5.2	5.9	1.1	-10.3	-17.0	7.8	1.1	-6.1	N#Cc1ccc(C2=NC(C(F)(F)F)(C(F)(F)F)c3c(n(Cc4ccco4)c(=O)[nH]c3=O)N2)cc1
-9.3	3.1	1.1	-8.6	11.6	6.4	/	-8.3	CS(=O)(=O)N1CC(C(=O)NC2CC2)Oc2ccc(Cl)cc21 (stereo not given)
-8.4	3.7	1.1	-2.4	-30.7	-4.3	1.1	1.4	CC(C)CNC(=O)CCCc1ccccc1
9.3	-6.6	0.9	-2.5	12.6	1.0	1.1	-6.4	Cn1c(=O)c2c(ncn2CC(=O)N2CCN(c3cccc(Cl)c3)CC2)n(C)c1=O
-13.0	6.7	1.7	3.4	-30.7	11.8	1.1	24.0*	COCCCn1c(=N)c(C(=O)NCC2CCCO2)cc2c(=O)n3ccccc3nc21 (stereo not given)
-7.5	2.1	1.1	-9.0	6.9	4.9	1	-7.4	O=C(O)c1ccc(F)c(S(=O)(=O)Nc2ccccc2)c1
-13.6	5.0	1.1	-1.4	0.5	4.3	1.1	-0.7	O=C(NC1(C(F)(F)F)C(=O)Nc2c1c(=O)[nH]c(=O)n2-c1ccccc1)c1cccnc1 (stereo not given)
2.8	3.5	1	-3.0	-16.0	3.0	1.1	-1.0	CCCc1nc(NCc2ccccn2)c2nnn(Cc3ccccc3F)c2n1
-13.9	-2.8	1.4	-15.7	-14.6	0.2	1.3	-5.3	Cc1ccc(N2C(=O)c3sc4nnc(C)c(=O)n4c3C2=O)cc1
6.5	1.4	1.4	-3.1	2.1	0.9	1.2	-7.7	Cn1c(-c2ccc3c(c2)OCO3)cnc1NC(=O)CCC(=O)NCCc1ccccc1
0.0	12.1	0.7	-5.8	-8.2	5.5	1.3	-3.6	Cc1nc2ccc(NC(=O)NCc3ccco3)cc2s1
4.6	-1.7	1.8	-14.1	8.6	4.6	1	-6.5	O=C(CSc1nnc2scc(-c3ccccc3)n12)N1CCN(Cc2ccccc2)CC1
2.7	1.9	1	-3.8	2.6	2.2	1.3	-6.6	CC1CC1C(=O)OCC(=O)NC(=O)NCc1ccco1 (stereo not given)
11.9	-1.6	0.8	0.6	-39.7	-0.5	1.1	-0.2	O=C(COc1ccccc1)NC(=S)Nc1ccc2c3c(cccc13)CC2
-0.5	-2.8	0.9	-13.3	-3.4	7.4	/	-3.0	Cc1ccsc1C1Nc2ccc3ncccc3c2C2=C1C(=O)CCC2 (stereo not given)
-1.7	14.4	1.1	-22.9	23.6	12.8	/	-4.0	COc1ccc(-c2noc(CSc3nc4ccccc4c(=O)n3-c3ccc(C)cc3)n2)cc1
-19.1	-2.9	1	0.4	-21.3	22.1	1.3	-1.6	COc1ccc(C2CC2/C(=N/OC(=O)c2cccs2)c2ccccc2)cc1 (stereo not given)
-9.2	-2.1	1	-18.3	-2.2	7.3	/	-5.5	COc1cccc(-c2cc(C(=O)Nc3ccc4c(c3)OCCO4)c3ccccc3n2)c1
-7.3	-5.7	0.9	-7.4	-11.7	0.8	1.1	-2.4	CS(=O)(=O)N(Cc1ccco1)CC(O)Cn1cc(C=O)c2ccccc21 (stereo not given)
17.5	-2.5	/	0.6	-5.7	0.6	1.1	-5.1	CC1CCN(C(=O)CSc2nnc(-c3ccc(S(=O)(=O)N4CCOCC4)cc3)n2C)CC1
4.4	8.7	0.8	-0.9	10.3	3.7	1.1	-0.9	Fc1ccc(-c2nnc(-c3ccc(Cl)cc3)o2)cc1
4.6	6.6	1.4	-4.4	-9.9	4.3	/	-2.3	O=C(NNC(=O)c1ccccc1-n1cccc1)c1ccc(Cl)cc1Cl
-19.2	1.1	/	-3.5	14.6	15.4	1.1	-4.6	CC(C)c1ccc(NC(=O)CN(Cc2ccccc2)S(C)(=O)=O)cc1
7.2	9.3	/	-3.6	17.3	4.6	1	-1.8	Cc1ccc(NS(=O)(=O)c2cc(C(=O)O)ccc2Cl)c(C)c1
-23.6	-3.7	1.7	-6.2	-8.5	-6.7	1	-3.4	COc1ccc(-n2nc(C(=O)Nc3ccc(OC)c(OC)c3)c3c4ccccc4n(C)c3c2=O)cc1
5.8	9.4	1.2	-32.4	15.5	7.8	/	-2.1	CCOC(=O)c1sc(NC(=O)CSc2nc3c(cc2C#N)CCCCC3)c(C#N)c1C
11.3	-12.9	1	-8.1	11.5	3.8	1.1	-9.3	CN1C(=O)CS(=O)c2ccc(C(=O)NC3CC3)cc21 (stereo not given)
-8.7	9.7	1.2	-0.1	6.2	7.5	0.9	-4.4	Cc1ccc(C)c(N(CC(=O)NCCC2=CCCCC2)S(C)(=O)=O)c1
-4.4	-5.3	0.8	-18.6	-6.4	1.9	1	-4.3	CCOC(=O)C1C(=O)N(C(=O)c2ccc(OC)cc2)CC1c1ccccc1 (stereo not given)
-4.6	8.5	/	-10.1	-2.3	1.2	1.1	-1.0	CCc1nc(NCC2CCCO2)c(C#N)c2c1COC(C)(C)C2 (stereo not given)
0.2	-8.2	0.8	2.3	-8.7	26.4	/	-4.7	O=C(CNc1ccc(C(F)(F)F)cc1[N+](=O)[O-])OCC(=O)c1ccccc1
19.2	-1.3	1.4	0.7	19.0	2.6	1.1	-0.6	C1CCC(n2nnnc2CN2CCN(C3CCCC3)CC2)CC1
-19.2	4.6	1	-14.3	-0.6	4.7	1.1	-3.1	O=C(CSc1ccc2nnc(-c3cccnc3)n2n1)NCc1ccco1
1.9	-3.1	1.7	-13.2	-3.1	1.4	1.1	-1.4	Cc1ccc(-c2noc(CSc3nnc(-c4ccncc4)n3-c3ccc(F)cc3)n2)cc1
9.8	-0.4	0.8	-15.5	-17.6	6.4	/	-2.4	Cc1ccc(C)c(NC(=O)CCc2ccc(S(=O)(=O)NC3CCCCC3)cc2)c1
27.2	-7.2	0.8	-4.3	-26.8	-1.8	/	3.4	O=C(NCc1ccc2c(c1)OCO2)c1cccc(N2CCCC2=O)c1
7.9	2.5	0.7	-6.6	5.4	0.9	0.9	-1.6	COC(=O)C1=C(CSc2nnnn2C)NC(=O)NC1c1cc(C)ccc1C (stereo not given)
14.8	7.8	/	7.4	39.5	-2.1	1.1	-9.8	Cc1ccn2c(-c3csc(NCc4ccccc4)n3)c(C)nc2c1
-0.5	1.9	1.9	-4.8	-23.5	6.8	1	0.5	COC(=O)CCN(C(=O)C12CC3CC(CC(C3)C1)C2)c1ccccn1
-9.1	-2.1	0.8	-31.3	-11.4	3.1	1.1	-3.1	N#CCCN(CCC#N)C(=O)c1ccc2c(c1)OCO2
-14.2	4.0	0.7	15.7	4.7	11.3	0.9	-4.8	c1coc(-c2nnc(-c3ccc4c(c3)OCO4)o2)c1
-7.3	0.9	1.2	-4.3	-23.4	6.7	/	-1.8	CC1(C)CC(=O)C(/C=N/c2ncccc2C(=O)O)=C(O)C1
11.3	1.4	1.4	-13.1	1.7	-1.8	1	-24.5	CCn1c(COc2cccc(C)c2)nnc1SCC(=O)Nc1cccc(C(=O)O)c1
-21.5	-17.0	0.9	-2.1	-9.1	7.4	1.2	-2.2	COc1ccc(-c2cnc(N)nc2-c2ccc(OC)cc2O)cc1
21.3	4.0	1.1	-8.1	6.1	1.9	1.2	-0.9	COCCn1c(SCc2cnc(-c3ccccc3)s2)nnc1-c1ccncc1
-10.7	8.2	0.9	-12.5	6.2	10.2	1.1	-6.4	COc1ccccc1CN1CC(C(=O)NCC2CCCO2)CC1=O (stereo not given)
19.7	0.1	1	-11.3	-7.6	8.8	/	-7.5	C=CCNC(=O)c1onc(CCl)c1C(=O)OC
-6.2	2.5	/	-5.0	-6.5	12.3	1.1	-6.5	Cc1ccc(-c2nc(C(=O)NC3CCCCCC3)no2)cc1
34.6	7.8	1.5	-2.1	-12.3	3.8	1	-0.7	C=CCn1c(CCNC(=O)c2cccs2)nnc1SCC(=O)Nc1cccc(F)c1
-9.4	5.1	0.7	4.7	-6.4	4.9	1.2	-2.0	C/C(=C\C(=O)c1ccc(Br)cc1)NCc1ccccc1
-3.0	1.2	1.1	-10.5	3.2	4.0	/	-7.7	CCc1oc2c(C)c(O)ccc2c(=O)c1-c1ccc2ccccc2n1
-8.2	1.6	1.1	-3.1	14.3	4.1	1	-6.9	CCOC(=O)Cn1c(=O)n(C2CCCC2)c(=O)c2ccccc21
7.8	-1.9	1.3	-6.7	-6.3	1.4	/	-3.6	Cc1ccc(S(=O)(=O)N(CC(=O)NCCC2=CCCCC2)Cc2ccccc2)cc1
-14.3	3.4	1.1	-13.2	-21.6	9.7	1.1	-3.9	CC(C(=O)N1CCOCC1)N1C(=O)c2ccccc2C1=O (stereo not given)
-3.6	2.8	1.1	-2.7	6.9	3.1	1.1	-5.9	COc1nc(NCCc2ccc(OC)c(OC)c2)nc(OC)n1
7.8	-9.5	0.9	-15.8	-1.6	5.3	1.2	-5.8	C=CCn1c(SCc2ccc3c(c2)OCO3)nc2scc(-c3ccco3)c2c1=O
-27.6	1.2	0.9	-1.3	-3.9	4.2	1.3	3.0	N#CCSc1nc(Nc2ccc3c(c2)OCO3)c2ccccc2n1
-15.5	2.4	1.1	-11.6	-5.5	2.3	1.1	-3.1	COc1ccc(C(=O)CSc2nnc(C3CC3)n2N)cc1

Gathered by group: the compounds so far with a furan ring, fused or not.
PLK1 PBD inh	EphB4 antag	PLAP activator	PLK1 inh	S1P2 blocker	HIV Rev-RRE inh	MT1-MMP txn act	S1P2 agonist	canonical_smiles
-5.2	5.9	1.1	-10.3	-17.0	7.8	1.1	-6.1	N#Cc1ccc(C2=NC(C(F)(F)F)(C(F)(F)F)c3c(n(Cc4ccco4)c(=O)[nH]c3=O)N2)cc1
0.0	12.1	0.7	-5.8	-8.2	5.5	1.3	-3.6	Cc1nc2ccc(NC(=O)NCc3ccco3)cc2s1
2.7	1.9	1	-3.8	2.6	2.2	1.3	-6.6	CC1CC1C(=O)OCC(=O)NC(=O)NCc1ccco1 (stereo not given)
-7.3	-5.7	0.9	-7.4	-11.7	0.8	1.1	-2.4	CS(=O)(=O)N(Cc1ccco1)CC(O)Cn1cc(C=O)c2ccccc21 (stereo not given)
-19.2	4.6	1	-14.3	-0.6	4.7	1.1	-3.1	O=C(CSc1ccc2nnc(-c3cccnc3)n2n1)NCc1ccco1
-14.2	4.0	0.7	15.7	4.7	11.3	0.9	-4.8	c1coc(-c2nnc(-c3ccc4c(c3)OCO4)o2)c1
7.8	-9.5	0.9	-15.8	-1.6	5.3	1.2	-5.8	C=CCn1c(SCc2ccc3c(c2)OCO3)nc2scc(-c3ccco3)c2c1=O
